Screening results (PubChem BioAssay)
VACV mCherry inh: vaccinia inhibition (mCherry reporter) | Vaccinia virus mCherry reporter infection, fluorescence; about a quarter of the inactives have no number | Potency, µM (top dose mostly 36.5 µM), for inactives: at the top dose activity change, negative = inhibition, most hits filed as inhibitors | actives 0.63% (n = 310,000) | AID 720579; active = well fitted inhibition curve with a large enough effect; inconclusive = small, poorly fitted or top-dose-only effect; inactive = no such curve, though single readings can be large or run the other way; tested in A549 cells; further: nearly all actives have a fitted effect of over 35% in size; inactives centre near -10
Vaccinia Venus: vaccinia inhibition (Venus reporter). Potency, µM (titrated, usually from 36.5 µM), inactives show at the highest dose activity change, negative = inhibition, actives largely listed as inhibitors. AID 720580. actives 0.46% (n = 330,000). Vaccinia virus Venus reporter expression, fluorescence; active means well fitted inhibition curve with a large enough effect; inconclusive means small, poorly fitted or top-dose-only effect; inactive means no such curve, though single readings can be large or run the other way; tested in A549 cells; further: nearly all actives have a fitted effect of over 30% in size; inactives centre near -10
* = called active by the depositor; i = inactive; u = inconclusive; x = not tested or not shown; & = joins results of further samples; [ ] = remark or other dose. On the % scale 0 is the no-effect control and ±100 the full control effect; potency means the concentration at half of the fitted maximal effect. Random draw from the library; any-hit rate near 0.87%.

Preview (seven entries):
1) O=C(CSCc1ccc(Cl)cc1)Nc1cccc(C(=O)O)c1
2) COc1ccc(OCc2nc(N)nc(Nc3ccccc3OC)n2)cc1
3) COc1ccccc1NC(=S)NC(NC(=O)c1ccco1)C(Cl)(Cl)Cl (stereo not given)
4) COc1cccc(CNC(=O)[C@@H]2CCCN2C(=O)[C@H]2CCCCN2C(=O)c2ccccc2C)c1
5) O=C(OCc1c(Cl)cccc1Cl)c1cnccn1
6) CC(=O)c1ccc(N=c2scc(C)n2C(C)C)cc1
7) CCOCC(=O)Nc1cccc(-c2nc3cccnc3s2)c1C
compound no.,1,2,3,4,5,6,7
VACV mCherry inh,-10%,-2%,-10%,i,i,-2%,-19%
Vaccinia Venus,-1%,1%,-11%,-4%,-12%,-3%,0%

All compounds of this part, from the first entry:
1) O=C(CSCc1ccc(Cl)cc1)Nc1cccc(C(=O)O)c1
2) COc1ccc(OCc2nc(N)nc(Nc3ccccc3OC)n2)cc1
3) COc1ccccc1NC(=S)NC(NC(=O)c1ccco1)C(Cl)(Cl)Cl (stereo not given)
4) COc1cccc(CNC(=O)[C@@H]2CCCN2C(=O)[C@H]2CCCCN2C(=O)c2ccccc2C)c1
5) O=C(OCc1c(Cl)cccc1Cl)c1cnccn1
6) CC(=O)c1ccc(N=c2scc(C)n2C(C)C)cc1
compound no.,1,2,3,4,5,6
VACV mCherry inh,-10%,-2%,-10%,i,i,-2%
Vaccinia Venus,-1%,1%,-11%,-4%,-12%,-3%

Entries of single compounds from above. Screens in order: VACV mCherry inh, Vaccinia Venus
Listed for COc1cccc(CNC(=O)[C@@H]2CCCN2C(=O)[C@H]2CCCCN2C(=O)c2ccccc2C)c1 = i, -4%
Listed for COc1ccccc1NC(=S)NC(NC(=O)c1ccco1)C(Cl)(Cl)Cl (stereo not given) = -10%, -11%

The list goes on.
7) CCOCC(=O)Nc1cccc(-c2nc3cccnc3s2)c1C
8) COC(=O)CSc1nnnn1-c1ccccc1
9) CCCSC1=C(C#N)C(c2ccc(Cl)cc2Cl)CC(=O)N1 (stereo not given)
10) O=C1COc2cc(S(=O)(=O)CCC(=O)N3CCN(c4ccccc4)CC3)c(Cl)cc2N1
11) CCNC(=S)N/N=C/c1cccc(C)c1
12) O=S(=O)(c1ccc(Br)cc1)c1nnn2c1nc(Nc1cccc(C(F)(F)F)c1)c1sccc12
compound no.,7,8,9,10,11,12
VACV mCherry inh,-19%,x,i,1%,-24%,-1%
Vaccinia Venus,0%,20%,-12%,1%,-12%,-22%

13) Cc1ccc2cc(C)c(SCC(=O)NCC3CCCO3)nc2c1 (stereo not given)
14) CSc1nc2ncncc2[nH]1
15) O=C(O)C(c1ccccc1)N1CCCCC1 (stereo not given)
16) CC(=O)N1CCc2cc(Br)cc(S(=O)(=O)NCc3ccc(Cl)cc3)c21
17) O=C(COC(=O)CCc1c[nH]c2ccccc12)NCc1ccccc1
18) CCc1nc2ccc(C(=O)NCc3ccccc3OC)cn2c1N(CCC(C)C)CCN(C)C
compound no.,13,14,15,16,17,18
VACV mCherry inh,-15%,-14%,-14%,u,-11%,i
Vaccinia Venus,2%,15%,-7%,-8%,-10%,-4%

19) CCCn1nnnc1NCc1ccc(N(C)C)cc1
20) Nc1nnc(SCc2ccc([N+](=O)[O-])cc2)s1
21) Cc1ccc(-c2cc(NC(=O)C(C)Oc3ccccc3F)on2)cc1 (stereo not given)
22) Cc1cccc(C)c1NC(=O)Nc1nc(C(N)c2ccccc2Cl)cs1 (stereo not given)
23) COc1ccc(Cc2nnc(SCC(=O)Nc3ccccc3C)n(N)c2=O)cc1
24) O=C(CSCc1ccccc1)N1CCN(S(=O)(=O)c2cccc(F)c2)CC1
compound no.,19,20,21,22,23,24
VACV mCherry inh,-10%,-9%,-18%,20%,-20%,-18%
Vaccinia Venus,4%,-8%,-8%,-1%,-20%,-11%

25) COc1ccc(CC(=O)NCc2ccc3c(c2)CCN3C(=O)c2ccc(Cl)cc2)cc1OC
26) CCOC(=O)C1CCCN(C(=O)c2cccc(S(=O)(=O)N(C)c3c(C)n(C)n(-c4ccccc4)c3=O)c2)C1 (stereo not given)
27) Cc1csc(=O)n1CCC(=O)OCC(=O)N(CC(C)C)c1c(N)n(Cc2ccccc2)c(=O)[nH]c1=O
28) CC1CCCC(NC(=O)CN2CCN(S(=O)(=O)c3ccc(Br)s3)CC2)C1C (stereo not given)
29) COc1cccc(O)c1CN1CCC(Oc2ccc(C(=O)NCc3ccccn3)cc2)CC1
30) C/C(=N\Nc1ccc(Cl)c(C(=O)O)c1)c1ccccn1
compound no.,25,26,27,28,29,30
VACV mCherry inh,-12%,-5%,u,u,-5%[7.34 µM],-16%
Vaccinia Venus,u,-18%,-3%,-25%,0%[7.34 µM],-3%

31) NC(=O)c1ccc(Oc2ccc3ccc(=O)oc3c2)c([N+](=O)[O-])c1
32) Cc1ccnc(NC(=O)CCC(=O)N(CC(=O)NCc2ccccc2)Cc2ccccc2)c1
33) CCc1c(C)nc2ncnn2c1N1CCN(S(=O)(=O)c2ccc(OC)cc2)CC1
34) COc1cc2c(cc1OC)C(Nc1ccc(S(N)(=O)=O)cc1)=NC(C)(C)C2
35) Cc1sc2ncn(CC(=O)N3CCN(c4cccc(Cl)c4)CC3)c(=O)c2c1S(=O)(=O)N1CCN(c2ncccn2)CC1
36) COc1cccc(C(=O)C2CCCN(Cc3ccc4nonc4c3)C2)c1 (stereo not given)
compound no.,31,32,33,34,35,36
VACV mCherry inh,-22%,-8%,-8%,i,-28%,-6%
Vaccinia Venus,-7%,0%,-12%,-18%,-21%,-13%

37) CCC(C)(C)C1CCC(=NNC(=O)c2ccoc2C)CC1 (stereo not given)
38) Cn1c(SCC(=O)NC(=O)NCc2ccccc2)nnc1C(F)(F)F
39) Cc1c(C)n(CCc2ccccc2)c2ncnc(NN)c12
40) CC1C(=O)Nc2ccc(S(=O)(=O)Nc3ccccc3Br)cc2NC1=O (stereo not given)
41) Cc1ccccc1CS(=O)(=O)CCC(=O)NCc1ccc(F)cc1Cl
42) Cc1cc(OC(C)C(=O)NCC2CCC(C(=O)O)CC2)c2c(C)c(C)c(=O)oc2c1 (stereo not given)
compound no.,37,38,39,40,41,42
VACV mCherry inh,-20%,-12%,-16%,2%&-10%,-23%,-3%
Vaccinia Venus,-7%,-9%,-10%,3%&-7%,0%,1%

43) COc1cc2c(cc1NC(=O)c1ccccc1-c1ccccc1C(=O)O)-c1ccccc1C2
44) O=C(O)C(=Cc1ccccc1[N+](=O)[O-])c1ccccc1
45) CCOc1cccc(NC(=O)/C(C#N)=C\c2cccnc2)c1
46) COc1ccccc1C(=O)Nc1ccc2oc(-c3cccc4c(Br)cccc34)nc2c1
47) CCc1ccc(Nc2nc3c(S(=O)(=O)c4cccc(Cl)c4)nnn3c3ccsc23)cc1
48) O=C(CNC(=O)c1ccc(Cl)cc1Cl)Nc1ccc(F)cc1
compound no.,43,44,45,46,47,48
VACV mCherry inh,i,-12%,u,i,-22%,-2%
Vaccinia Venus,-18%,1%,-25%,-16%,-19%,1%

49) COc1ccc(-c2noc(CCC(=O)NCc3cccnc3)n2)cc1OC
50) Cn1c(=O)c2ccccc2n(CC(=O)Nc2ccc3c(c2)OCCO3)c1=O
51) CC(C)c1nc(C(=O)N2CCc3c([nH]c4ccccc34)C2c2ccccn2)cs1 (stereo not given)
52) C=CCC[C@@H](Cc1ccc(F)cc1)C(=O)OC[C@H](C)NC(=O)[C@H](CC=C)CC(=O)N(CCO)Cc1ccccc1
53) CN(C)C(=O)c1ccc(NC(=O)COC(=O)/C=C/c2cccs2)cc1
54) CC(=O)c1ccc2cc3c(cc2c1)OCO3
compound no.,49,50,51,52,53,54
VACV mCherry inh,-15%,i,-4%,i,-15%,i
Vaccinia Venus,-20%,-9%,-4%,u,-12%,-17%

55) O=C(CC(c1ccccc1)c1cc(Br)ccc1O)NCC1(c2ccccc2)CCCC1 (stereo not given)
56) O=[N+]([O-])c1cccc2ccc(/C=C/c3ccc(C(F)(F)F)cc3)nc12
57) O=C(CSc1nc(-c2ccccc2)cn1-c1ccccc1F)Nc1ccc(F)cc1
58) N#Cc1c(NCc2ccccc2)ccnc1Cl
59) Cc1ccccc1Cn1c(=O)n(CC2CCC(C(=O)N3CCC(C)CC3)CC2)c(=O)c2sccc21 (stereo not given)
60) CCCOc1ccccc1N/C(=N\S(=O)(=O)c1ccc(C)cc1)Nc1nc(C)cc(C)n1
compound no.,55,56,57,58,59,60
VACV mCherry inh,-20%,-28%,-14%,-6%,u,-25%
Vaccinia Venus,-23%,-18%,-10%,-9%,u,-16%

In a second layout: entries from further up.
Below each SMILES – VACV mCherry inh | Vaccinia Venus
[54] CC(=O)c1ccc2cc3c(cc2c1)OCO3
  i | -17%
[35] Cc1sc2ncn(CC(=O)N3CCN(c4cccc(Cl)c4)CC3)c(=O)c2c1S(=O)(=O)N1CCN(c2ncccn2)CC1
  -28% | -21%

(continued)
61) CC1CCCN(C(=O)Nc2ccc(Br)cc2Cl)C1 (stereo not given)
62) CCC1CCCCN1S(=O)(=O)c1ccc(S(=O)(=O)N2CCN(S(=O)(=O)CC)CC2)cc1 (stereo not given)
63) CC(Oc1ccccc1Cl)C(=O)Nc1ccc(S(=O)(=O)Nc2nccs2)cc1 (stereo not given)
64) COc1ccc(-c2cc(C(=O)NC(Cc3cc4ccccc4[nH]3)C(=O)O)c(C)o2)cc1OC (stereo not given)
65) Cc1cccc(C(C)C)c1NC(=O)COC(=O)Cc1ccsc1
66) Cc1ccc(NC(=O)[C@H]2O[C@@H]3OC(C)(C)O[C@@H]3[C@H]3OC(C)(C)O[C@H]32)cc1F
compound no.,61,62,63,64,65,66
VACV mCherry inh,i,-15%,i,i,i,9%
Vaccinia Venus,-17%,u,-11%,-6%,-2%,3%

67) COc1cccc(NS(=O)(=O)c2cc3c(cc2C)N(C)CCO3)c1
68) CCOC(=O)C1=C(C(=O)OCC)c2ccc(OC)c(OC)c2C1
69) COc1ccc(-c2ccc(CN3C(C)C(=O)N(Cc4cn(CCC5OCCO5)nn4)CCS3(=O)=O)cc2)cc1 (stereo not given)
70) COC(=O)c1ccc(CSc2nnc(SCc3ccc(C(=O)OC)o3)s2)o1
71) CC(C)Oc1ccc(CNC(=O)CCn2c(=O)c3cccn3c3ccc(F)cc32)cc1
72) CC(C)CCNC(=O)C(c1ccco1)N(CCCO)C(=O)Cn1nnc(-c2ccc(F)cc2)n1 (stereo not given)
compound no.,67,68,69,70,71,72
VACV mCherry inh,-11%,-12%,-12%,-12%,5%,-16%
Vaccinia Venus,-19%,-15%,-20%,-3%,7%,-10%

73) CCc1ccccc1N1CC(C(=O)Nc2nccs2)CC1=O (stereo not given)
74) CCCC(=O)Nc1ccc(NC(=O)c2ccccc2Cl)nc1
75) COc1ccc(C2/C(=C(\O)c3ccc4c(c3)OCCO4)C(=O)C(=O)N2CCCN(C)C)c(OC)c1 (stereo not given)
76) O=C(CCCCO)CCCCCCCC[C@H]1N[C@H](CO)[C@H](O)[C@@H]1O[C@@H]1O[C@H](CO)[C@@H](O)[C@H](O)[C@H]1O
77) CN(C)c1ccc(CNC(=O)CN2CCSc3ccc(S(=O)(=O)N(C)C)cc32)cc1
78) Cc1sc2nc(CSc3nnnn3-c3ccc(Cl)cc3)[nH]c(=O)c2c1C
compound no.,73,74,75,76,77,78
VACV mCherry inh,-18%,u,-6%,-13%,4%,-24%
Vaccinia Venus,-8%,-22%,-13%,-5%,11%,-6%

79) O=C(COc1ccccc1C(=O)c1cnn(-c2ccccc2)c1)Nc1ccc2ccccc2c1
80) Cc1ccc(C2NC(=S)NC3=C2C(=O)CCC3)cc1 (stereo not given)
81) Cc1noc(C)c1NC(=O)N(C)C[C@@H]1Oc2cc(Br)ccc2S(=O)(=O)N([C@@H](C)CO)C[C@H]1C
82) O=C(NCc1ccccn1)C1CCN(S(=O)(=O)c2cccs2)CC1
83) Cc1nc2ccccc2c2oc(C(=O)NCc3ccc4c(c3)OCO4)cc12
84) Cc1ccc(NC(=O)CCC(=O)NNC(=O)c2ccccc2Cl)c(C)c1
compound no.,79,80,81,82,83,84
VACV mCherry inh,-14%,i,-15%,i,u,-23%
Vaccinia Venus,-24%,-11%,-3%,-6%,u,-20%

85) CCN(c1cccc(C)c1)S(=O)(=O)c1cc2c3c(c1)CCC(=O)N3CCC2
86) COc1ccc(CC(=O)OC(C)CN2CCOCC2)cc1 (stereo not given)
87) COc1ccccc1N1CC(C(=O)Nc2nnc(SC)s2)CC1=O (stereo not given)
88) Fc1ccccc1CN1Cc2ccccc2-n2nncc2C1
compound no.,85,86,87,88
VACV mCherry inh,-14%,i,i,-9%
Vaccinia Venus,-24%,-14%,-13%,-10%
